Source: PubChem BioAssay (National Center for Advancing Translational Sciences (NCATS))
HPGD block: HPGD (human) dehydrogenase inhibition; P15428; purified HPGD, NADH fluorescence kinetic, PGE2 substrate; Potency, µM, for inactives: at the top dose activity change, negative = inhibition, most hits filed as inhibitors; hit rate 4.3% among 150,000; active = well fitted inhibition curve with a large enough effect (not every such curve was filed as active); inconclusive = small, poorly fitted or top-dose-only effect, or another doubt; inactive = no such curve, though single readings can be large or run the other way;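 note: top concentration of the series not given in the record; plate controls included wells without enzyme; inactives centre near -10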
Target sequence (P15428 whole entry, looked up): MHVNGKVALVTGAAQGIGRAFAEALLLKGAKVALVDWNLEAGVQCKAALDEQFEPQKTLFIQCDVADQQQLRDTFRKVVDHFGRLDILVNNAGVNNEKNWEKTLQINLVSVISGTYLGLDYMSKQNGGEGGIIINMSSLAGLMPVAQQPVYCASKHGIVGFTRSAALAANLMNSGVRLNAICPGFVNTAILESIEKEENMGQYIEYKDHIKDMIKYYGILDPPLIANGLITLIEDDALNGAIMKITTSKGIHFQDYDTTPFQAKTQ
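20 nM HPGD preincubated 15 min at room temperature with compound in 50 mM Tris-HCl pH 8, 0.01% Tween 20. Started with 1 mM NAD+ and 30 uM prostaglandin E2; NADH fluorescence (360/450 nm) read 5 times over 30-s intervals, last minus first.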
Numbers without * were called inactive; ? = inconclusive; & = joins results of further samples. % is set by controls: 0 for no effect and ±100 for the full control effect; potency is the fitted concentration of half-maximal effect. The list is partial. The share of hits here may be higher or lower than overall.

SMILES	HPGD block
COC(=O)C1C2C=CC3(CN(C(C)C)C(=O)C13)O2 (centres undefined)	-4%
CCc1nnc(NC(=O)[C@@H](NC(=O)c2cccc(S(=O)(=O)N(CC)CC)c2)C(C)C)s1	-18%
CCS(=O)(=O)N1CCC(C(=O)NCCC2=CCCCC2)CC1	-4%
CCn1cc(C(=O)O)c(=O)c2cc(S(=O)(=O)N(C)C)ccc21	-7%
COc1ccc2nc(C)c3cc(C)oc3c2c1	-21%
COC(=O)CCC(=O)OC1(C)C(=O)C2=CN(Cc3ccccc3)C(c3ccc(OC)cc3)=CC2=C(Br)C1=O (centres undefined)	-3%
O=C(CSc1nc(-c2ccc(F)cc2)cc(C(F)(F)F)n1)NCc1cccs1	-8%
Cc1ccc(SCCCCN2C(=O)NC(C)(C)C2=O)cc1	-14%
CCC(C)(C(=O)NC1CCCC1)N(C(=O)CNC(C)=O)c1ccccc1 (centres undefined)	-5%
O=C(C1CCN(c2ncnc3c2sc2cccc(F)c23)CC1)N1CCOCC1	?
CC(=O)N1CC=CC1(CC(C)C)C(=O)NCCc1c[nH]c2ccccc12 (centres undefined)	-6%&-6%
COC(=O)C1=C(C(=O)OC)[C@@H]2N(C)c3ccccc3[C@@]23C[C@@H](C(=O)OC)N(S(=O)(=O)c2c(C)noc2C)C3=N1	-6%
Cc1[nH]n(-c2ccc([N+](=O)[O-])cc2)c(=O)c1C=NCCN1CCN(C(=O)c2ccc(Br)cc2)CC1	-10%
COc1ccc(Nc2sc(C(=O)c3ccc(Cl)cc3)c(N)c2C(=O)Nc2ccccc2OC)cc1	-11%
CCN(CC)c1ccc(NC(=O)c2cnccn2)cc1S(=O)(=O)Nc1ccc(OC)cc1	-4%
Nc1ncnc(N(c2ccccc2)C2CCCCC2)c1[N+](=O)[O-]	-6%
CS(=O)(=O)c1ccc(Sc2nc3ccccc3[nH]2)c([N+](=O)[O-])c1	-1%
CC(=O)Nc1sc(C)c(C)c1C(=O)OC1CCOC1=O (centres undefined)	-7%
COCCN1C=C(C(=O)OC)C(c2ccc3c(c2)OCO3)C(C(=O)OC)=C1	?
O=C(COc1ncnc2sccc12)N1CCN(S(=O)(=O)c2ccc(Cl)cc2)CC1	-6%
O=C(N/N=C/c1cnc2ccccc2n1)c1cccc(F)c1	-17%
O=C(Nc1cccc2ccccc12)c1ccc([N+](=O)[O-])s1	-5%
COCc1ccc2oc(C(=O)O)cc2c1	-12%
O=C(C1=C(O)C(=O)N(CCN2CCOCC2)C1c1ccncc1)c1ccco1 (centres undefined)	-17%
Cc1ccn2c(C(=O)N/N=C\c3ccc4c(c3)OCO4)c(C)nc2c1	?

(list continues)
SMILES	HPGD block
COC(=O)c1ccc(OC(=O)c2ccccn2)cc1	-3%
COCCN(C(=O)Cc1cccs1)C(C(=O)NCc1ccc(OC)cc1)c1ccc(C)cc1 (centres undefined)	-27%
CCOc1ncccc1C(=O)NCCN1C(=O)S/C(=C/c2cccs2)C1=O	-1%
CS(=O)(=O)N1CCC[C@@]2(CCN(Cc3ccccc3)C2)C1	-8%
CC1=C(C(=O)NCc2ccccc2)C(c2cc(Br)cc(Br)c2OC(C)C)NC(=O)N1 (centres undefined)	1%
Cc1cc(C)cc(NC(=O)CSCc2cnn(-c3ccccc3)c2-n2cccc2)c1	-21%
Cc1coc2c(C)c3oc(=O)c4c(c3cc12)CCCC4	-26%
O=c1c2ccccc2nnn1CSc1nnc(-c2ccco2)o1	-16%
O=[N+]([O-])c1ccc(-c2csc(N3CCc4ccccc4C3)n2)cc1	-6%
O[C@@H](C1=C/C(=C\c2ccncc2)c2ccccc21)c1ccncc1	-1%
O=C(Cc1ccccc1)N/N=C/c1ccc([N+](=O)[O-])s1	-24%
O=C(Cc1cc(=O)[nH][nH]1)N/N=C/C(Cl)=C/c1ccccc1	-28%&-23%
CC/C(=N\n1nnnc1Nc1ccccc1)c1ccccc1	-13%
Cn1nnc(-c2ccc(OCc3ccccc3F)cc2)n1	-2%
Cc1cc(NC(=O)NC2(C(F)(F)F)Oc3ccc(Cl)cc3O2)no1 (centres undefined)	1%
O=C(Nc1cnc2ccccn2c1=O)c1ccc(Cl)cc1	-5%
COc1ccccc1/C=C/C(=O)OCC(=O)NCc1ccco1	?
CC(C)n1nc(C(=O)OCC(=O)N(C)C2CCS(=O)(=O)C2)c2ccccc2c1=O (centres undefined)	-2%
CCOc1ccc(NC(=O)CSc2nnc(Cn3cnc([N+](=O)[O-])n3)n2C)cc1	-5%
CC(C)(C)C(=O)OCc1cn(-c2ccc(Cl)cc2)nn1	-6%
CCn1nnnc1SCC(=O)Nc1nc(-c2cccs2)cs1	-18%
O=C(NCc1cccs1)c1cc(S(=O)(=O)N2CCCCC2)ccc1Cl	-7%
CN=C(C)C1=C(O)C(C(=O)OC)C(C)(C)CC1=O (centres undefined)	3%
CCCC(=NCC(=O)O)C1=C(O)C(C(=O)OC)C(C)(C)CC1=O (centres undefined)	-11%
CCOC(=O)N1CCN(C(=O)CN2C(=O)COc3ccc(C)cc32)CC1	-11%

Four entries picked at random from the list so far:
SMILES	HPGD block
COc1ccccc1/C=C/C(=O)OCC(=O)NCc1ccco1	?
CCn1nnnc1SCC(=O)Nc1nc(-c2cccs2)cs1	-18%
O=c1c2ccccc2nnn1CSc1nnc(-c2ccco2)o1	-16%
Cc1cc(C)cc(NC(=O)CSCc2cnn(-c3ccccc3)c2-n2cccc2)c1	-21%

More records follow:
SMILES	HPGD block
N#Cc1cccc(Cn2nnc(-c3ccccc3)n2)c1	-15%
COc1ccc(C(C)(C)C)cc1NC(=O)CCCn1c(=O)oc2ccccc21	-9%
Cc1cc(=O)c(C(=O)O)cn1Nc1ccc(F)cc1	-5%
Cc1onc(-c2c(Cl)cccc2Cl)c1C(=O)Nn1cnnc1	-13%
COc1ccc(CN2CCN(C(=O)c3ccco3)CC2)cc1	-8%
Brc1cnc(N2CCCC2)nc1N1CCOCC1	-1%
Cc1ccc(NC(=O)/C=C/C(=O)O)c([N+](=O)[O-])c1	-7%
CCc1ccc(NC(=O)Cn2nc(C(F)(F)F)c3c2CCC3)cc1	-17%
CCn1c(C)nc2cc(C(=O)N=Nc3c(O)[nH]c4c(C)cc(C)cc34)ccc21	-20%
O=C(Cc1cccs1)N/N=C/C=C/c1ccccc1	-15%
COc1cccc(N2CCN(C3CC(=O)N(c4ccc(C)c(Cl)c4)C3=O)CC2)c1 (centres undefined)	-14%
Cc1ccc(N(C(=O)Cn2nnc3ccccc32)C(C(=O)NCc2ccccc2)c2ccccn2)cc1 (centres undefined)	1%
CC(NC(=O)CC(c1ccccc1)c1cc(Cl)ccc1O)c1ccccc1 (centres undefined)	?
Cc1ccc(C2CC(=O)Nc3sc(C(N)=O)c(N)c32)cc1 (centres undefined)	0%
CC(=O)OCC(=O)[C@@]1(O)CC[C@@H]2[C@H]3CCC4=CC(=O)CC[C@]4(C)[C@]3(F)[C@@H](O)C[C@@]21C	1%
O=C1N(c2ccc(Cl)c(Cl)c2)CN(Cc2ccccc2)CN1n1cnnc1	1%
COc1ccc(C(=O)CSc2nnc(-c3cnccn3)n2Cc2ccco2)cc1	-12%
N#CC1=C(N)SC(N)=C(C#N)C1C1C=CCCC1 (centres undefined)	-23%
CCCc1cc(-n2ccnc2)n2c(nc3ccccc32)c1C#N	-23%
CCOC(=O)C(=O)Nc1nnc(C2CCCCC2)s1	16µM*
CC(=O)N1CCC[C@@]2(CCN(C(c3ccccc3)c3ccccc3)C2)C1	-9%
O=C(OC(C(=O)NCc1cccs1)c1ccccc1Cl)c1ccco1 (centres undefined)	-9%
Cc1cc(NC(=O)CCN2CCC(C(N)=O)CC2)ccc1Br	-5%
COc1ccc(N2CCN(S(=O)(=O)c3cccc4nsnc34)CC2)cc1	-5%
CCCn1c(C(=O)OC)cc2c1ccn2-c1ccc(F)cc1	?

The results go on.
SMILES	HPGD block
CCOc1ccc(C(=O)NCC(=O)OCc2c(C)noc2C)cc1	-7%
CCCCOC(=O)CN1C(=O)c2ccc(C(=O)OCCCC)cc2C1=O	-11%
COC(=O)c1cc(-c2ccccc2)on1	-2%
Cc1ccc(-c2nc(-c3nccc4ccccc34)oc2-c2ccccc2)cc1	?
COc1ccc(NS(=O)(=O)c2ccc(NC(=S)NC(=O)CC(C)C)cc2)cc1	-14%
Cc1sc(NC(=O)c2ccc(OCC(C)C)cc2)c(C(N)=O)c1-c1ccc(Cl)cc1Cl	?
CCCCCCN(C(=O)CCCCCN1C(=O)NC(c2ccc(-c3ccccc3)cc2)C(C(=O)OCc2ccccc2)=C1C)C(C(=O)NCCCC)c1ccc(-c2ccccc2)cc1 (centres undefined)	-10%
O=C(C1Cc2ccccc2CN1S(=O)(=O)c1ccc(F)cc1)N1CCOCC1 (centres undefined)	2%
Cc1cc(C)c2cc(C#N)c(NCCCNC(=O)CCC(=O)O)nc2c1	?
COc1ccc2[nH]cc(CC(=O)O)c2c1	-17%
COc1ccc2[nH]c(=O)c(CN(CC3CCCO3)C(=O)Nc3ccccc3OC)cc2c1 (centres undefined)	?
CCN1c2ccccc2NC2C1C(C(C)=O)C(=O)N2c1ccc(Cl)cc1 (centres undefined)	-13%
O=C1c2ccccc2CCC12N=NCC2c1ccccc1 (centres undefined)	-18%
CCOC(=O)Cn1nc(C)n(-c2ccc(C(C)C)cc2)c1=O	-7%
CC(C)N1C(=S)SC(C)(C)C1NO (centres undefined)	-15%
CCc1cc2c(CN3CCN(CCO)CC3)cc(=O)oc2cc1O	?
CC(=O)N=c1n(C)c2ccccc2n1CCOc1ccccc1	-3%
Cc1ccc(SC/C(O)=C(\C#N)c2nc3ccccc3n2C)cc1	-11%
COc1ccccc1N1CCN(C2CCCC(C)C2)CC1 (centres undefined)	5%
Cc1cc(N)ccc1-n1c(C)ccc1C	-7%
Cc1cc2nc(-c3ccc(SCc4ccc(C#N)cc4)nc3)[nH]c2cc1C	?
Cc1ccc2cc(CN(CC3CCCO3)C(=S)NCc3ccco3)c(=O)[nH]c2c1C (centres undefined)	-11%
CCOC(=O)C1=C(C)c2ccccc2OC1(C)C(=O)OCC (centres undefined)	-12%
NC(N)=Nc1nc(CSCC/C(N)=N/S(N)(=O)=O)cs1	-1%&-15%&-6%
Cc1ccccc1C(=O)OCn1nnc2ccccc2c1=O	-23%

New compounds follow:
SMILES	HPGD block
CCCn1nc(C(=O)OCn2nnc3ccccc3c2=O)c2ccccc2c1=O	-12%
CCN(CC)CCNc1nc2ccccc2n1C	-7%
Cc1ccc(Cn2nnnc2CN2CCC(NC(=O)c3ccccc3F)CC2)cc1	1%
Cc1ccc(N(C)S(=O)(=O)c2cccc(C(=O)Oc3ccc4c(C)cc(=O)oc4c3)c2)cc1	?
Cc1cc(Nc2cc(F)ccc2C)n2nc(C)nc2n1	-22%
CCc1ccc(Sc2cc(C(=O)NCCN3CCOCC3)c3ccccc3n2)cc1	-2%
CCn1c(C(=O)N2CCC(C(=O)NCc3ccc4c(c3)OCO4)CC2)cc2sccc21	-16%
COc1cc(/C=N/n2cnnc2)ccc1OS(=O)(=O)c1ccccc1[N+](=O)[O-]	-20%
Cc1ccsc1/C=N/NC(=O)c1ccc2nc[nH]c2c1	-20%
CC(N)=NCCCC[C@@H](N)C(=O)O	-10%
N/C(=N\OC(=O)C1CCCCC1)c1ccccn1	-13%
COc1ccc(/C=N/NC(=O)CN2CCS(=O)(=O)CC2)cc1	-7%
Cc1ccc(C(=O)NC(=S)Nc2ccc3[nH]c(=O)[nH]c3c2)cc1	-12%
Nn1cnc2sc3c(c2c1=O)CCC3	-8%
O=[N+]([O-])c1ccc(NCc2ccccc2)nc1	-10%
Cn1cc(C=C2C(=O)CC(C)(C)CC2=O)c2ccccc21	-10%
COc1ccc(/C=c2/sc3n(c2=O)NC2(c4ccccc4)N(C)C(=O)N(C)C2(c2ccccc2)N=3)cc1 (centres undefined)	?
Cc1ccc(S(=O)(=O)C2(C(=O)Nc3ccc(F)cc3)CC2)cc1	-9%
COC(=O)Cc1cc(=O)[nH]c(/N=C(\N)Nc2ccc(C)cc2C)n1	-18%
O=C(O)CC1CCCc2ccccc2C1O (centres undefined)	-6%
Cc1c(C)c2c(C)nn(-c3ccccc3)c2[nH]c1=O	?
CC(C)c1onc(C(=O)NCc2ccccc2)c1[N+](=O)[O-]	?

Filtered by structure, those above with fluorine.
SMILES	HPGD block
O=C(CSc1nc(-c2ccc(F)cc2)cc(C(F)(F)F)n1)NCc1cccs1	-8%
O=C(C1CCN(c2ncnc3c2sc2cccc(F)c23)CC1)N1CCOCC1	?
O=C(N/N=C/c1cnc2ccccc2n1)c1cccc(F)c1	-17%
Cn1nnc(-c2ccc(OCc3ccccc3F)cc2)n1	-2%
Cc1cc(NC(=O)NC2(C(F)(F)F)Oc3ccc(Cl)cc3O2)no1 (centres undefined)	1%
Cc1cc(=O)c(C(=O)O)cn1Nc1ccc(F)cc1	-5%
CCc1ccc(NC(=O)Cn2nc(C(F)(F)F)c3c2CCC3)cc1	-17%
CC(=O)OCC(=O)[C@@]1(O)CC[C@@H]2[C@H]3CCC4=CC(=O)CC[C@]4(C)[C@]3(F)[C@@H](O)C[C@@]21C	1%
CCCn1c(C(=O)OC)cc2c1ccn2-c1ccc(F)cc1	?
O=C(C1Cc2ccccc2CN1S(=O)(=O)c1ccc(F)cc1)N1CCOCC1 (centres undefined)	2%
Cc1ccc(Cn2nnnc2CN2CCC(NC(=O)c3ccccc3F)CC2)cc1	1%
Cc1cc(Nc2cc(F)ccc2C)n2nc(C)nc2n1	-22%
Cc1ccc(S(=O)(=O)C2(C(=O)Nc3ccc(F)cc3)CC2)cc1	-9%
